High-throughput results: PubChem, several laboratories
eIF4H FP inh – inhibitors of RNA binding by human eIF4H; 290,000 tested, 0.94% active; AID 2012; eIF4H fluorescence polarization binding assay; inhibition, % at 35 µM;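 active = 50% or more with normal probe brightness, or confirmed in later tests; inconclusive = above 50% with abnormal brightness, or retests that disagree; inactive = below 50% or failed in later tests; about a fifth of its hits are not listed in these tables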;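 also: calls also rest on retests at 20 µM and on dose response follow-up; 0% = protein and probe with vehicle and 100% = probe without protein; strong numbers were not always called active; many hits fall short of the cut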
Yeast UUG start – alters start codon recognition fidelity in yeast; S. cerevisiae UUG-firefly luciferase reporter, luminescence/redox ratio; activity score, % at 18.7 µM; 350,000 tested, 0.13% active;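 active = replicate mean at a twofold rise or more, about +100% in these data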;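 also: firefly luciferase made from a UUG start codon reports start codon fidelity; reporter light over untreated wells divided by growth signal over untreated wells; some hits fall short of that in this replicate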
HIV Env fusion – inhibitors of HIV Env-mediated cell fusion. 360,000 tested, 1.1% active. HeLa-JRFL Env/CEM21 cell fusion, luciferase. inhibition, % at 12.3 µM;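 active = mean replicate inhibition score of at least 50 and every replicate individually at or above 50; inconclusive = only one of the two criteria met; inactive = mean below 50 and not all replicates reaching 50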;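 also: 0% = plate neutral controls and 100% = maraviroc near 300 nM; one replicate is shown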
CSC inhib – cancer stem cell inhibition; inhibition, % at 7.5 µM; 300,000 tested, 1.1% active; cancer stem cell-like cells viability, luminescence;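 active = mean at 75% or more and at least half the replicates too; inconclusive = mean and replicates disagree; tested in HMLE shEcad cells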;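 also: 0% = median of negative and 100% = median of positive control wells; the first replicate is given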
Rce1 inhib – yeast Ras-converting enzyme inhibition. Q03530. yeast membranes, quenched prenylated peptide cleavage fluorescence. calls only. 290,000 tested, 0.27% active. AID 2563;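 active = fall in fluorescence gain of 50% or more versus controls, with final raw signal at or below 3038400; inconclusive = same 50% fall but final raw signal above 3038400; inactive = fall in fluorescence gain under 50%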;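 also: plate controls were neutral control wells for no effect and wells lacking membranes for full effect; tested at 10 µM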
Target sequence (Q03530 whole entry, looked up): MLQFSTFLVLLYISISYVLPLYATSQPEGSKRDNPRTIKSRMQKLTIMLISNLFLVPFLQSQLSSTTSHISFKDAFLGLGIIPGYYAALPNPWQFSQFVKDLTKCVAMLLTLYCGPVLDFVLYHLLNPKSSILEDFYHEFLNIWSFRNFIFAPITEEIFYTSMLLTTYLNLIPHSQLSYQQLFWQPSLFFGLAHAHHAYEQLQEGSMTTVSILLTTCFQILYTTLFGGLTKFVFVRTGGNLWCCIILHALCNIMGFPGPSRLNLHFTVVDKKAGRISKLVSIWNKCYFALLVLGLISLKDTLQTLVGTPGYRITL
MT1-MMP act inh – blocks activation of human MT1-MMP; HT1080 RFP-PRO-GFP cells, GFP/RFP ratio fluorescence, overnight; percent of plate control window, DMSO zero; GFP/RFP ratio change, % at 20 µM; AID 651647; P50281; 360,000 tested, 0.061% active;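 active = GFP/RFP ratio change of at least 30% with cell ATP level not reduced by more than half and red fluorescence within 50% of control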; also: strong numbers were not always called active
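Material: RFP-PRO-GFP reporter HT1080 cells. Dosing: single-point 20 µM compound, 1% DMSO. Controls: DMSO and RFP-L50D-GFP cell wells. Timing: cells overnight before dosing, compound overnight, 37 °C, 5% CO2. Measure: GFP/RFP fluorescence ratio.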
PABP FP inh – blocks human PABP binding to poly(A) RNA | P11940 | fluorescence polarization | inhibition, % at 35 µM | 290,000 tested, 1% active;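 active = 50% or more with normal probe brightness, or confirmed in later tests; inconclusive = above 50% with abnormal brightness, or retests that disagree; inactive = below 50% or failed in later tests; about a fifth of its hits are not listed in these tables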;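 also: calls also rest on retests at 20 µM and on dose response follow-up; controls were probe without protein and protein plus probe with vehicle; some compounds called inactive have numbers as strong as hits; many hits fall short of the cut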
Target sequence (P11940 whole entry, looked up): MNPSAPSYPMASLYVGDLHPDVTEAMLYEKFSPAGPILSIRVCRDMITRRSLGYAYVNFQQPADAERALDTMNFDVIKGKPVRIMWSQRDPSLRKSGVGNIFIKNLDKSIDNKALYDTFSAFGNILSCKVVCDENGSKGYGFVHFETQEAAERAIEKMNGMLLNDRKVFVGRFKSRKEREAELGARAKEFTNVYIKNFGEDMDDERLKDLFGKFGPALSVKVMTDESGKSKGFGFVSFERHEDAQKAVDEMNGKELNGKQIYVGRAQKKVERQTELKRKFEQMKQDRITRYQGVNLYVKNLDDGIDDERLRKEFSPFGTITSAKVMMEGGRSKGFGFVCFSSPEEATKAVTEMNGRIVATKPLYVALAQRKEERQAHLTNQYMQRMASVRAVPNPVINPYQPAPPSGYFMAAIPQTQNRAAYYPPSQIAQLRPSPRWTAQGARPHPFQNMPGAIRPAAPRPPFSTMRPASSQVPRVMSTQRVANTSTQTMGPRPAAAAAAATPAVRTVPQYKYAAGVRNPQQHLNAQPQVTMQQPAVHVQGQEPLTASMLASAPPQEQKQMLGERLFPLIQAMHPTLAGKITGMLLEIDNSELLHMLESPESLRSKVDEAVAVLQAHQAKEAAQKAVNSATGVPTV
eIF4H FP inh retest – further read-out of eIF4H FP inh, marked with its call; inhibition, %; compound at 20 µM; confirmation average;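 mean of two retest wells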
PABP FP inh retest – further read-out of PABP FP inh, marked with its call; inhibition, %; compound at 20 µM; confirmation repeats;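 mean of two retest wells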
MT1-MMP act inh RFP – further read-out of MT1-MMP act inh, marked with its call; RFP signal change, %; measured here: RFP expression control read;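 0 = vehicle wells; hits needed this value within 50% of zero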
Numbers without * were called inactive; i = inactive; u = inconclusive; x = no result given. The list is partial; count on the stated rates, not on these rows.

SMILES	eIF4H FP inh	Yeast UUG start	HIV Env fusion	CSC inhib	Rce1 inhib	MT1-MMP act inh	MT1-MMP act inh RFP	PABP FP inh	others
O=C(CSc1cn(CCNC(=O)c2cccs2)c2ccccc12)NCc1ccccc1	-9	-13	u	-5	i	-2	-6	0
COc1ccc(S(=O)(=O)N2CCOCC2)cc1NC(=O)CSc1n[nH]c(C(C)C)n1	5	-15	26	-16	x	-2	2	13
C/C(CC(=O)Nc1cc(C)ccn1)=N\NC(=O)c1cccc(C)c1	-8	x	7	-5	i	2	1	3
COc1cccc(CC(=O)Nn2c(C)nc3ccccc3c2=O)c1	-16	-8	x	13	i	-2	2	5
COc1ccccc1CN=C1Nc2ccccc2CS1	-2	x	-5	-2	i	-1	2	10
Cc1ccc(C(=O)N2C(CC(=O)Nc3ccc(Cl)cc3)C(=O)NC3CCCCC32)cc1 (stereo not drawn)	3	19	12	63	i	-11	-16	11
O=C1N=c2ccccc2=C1c1sc(=O)[nH]c1O	4	-4	-30	3	i	8	-4	15
CC(C)C(=O)Nc1ccc(N2CCOCC2)c(S(=O)(=O)Nc2ccccc2Cl)c1	x	-11	x	-16	x	-2	-2	x
O=C(Nc1ccc(NC(=O)c2ccco2)c(Cl)c1)c1cccc([N+](=O)[O-])c1	-9	x	-14	5	i	2	-3	-12
Cc1ccc(NC(=O)CS(=O)c2ccccc2N)c(C)c1 (stereo not drawn)	-7	-11	-29	x	i	0	1	-10
O=C(c1ccco1)N1CCN(C2CN(C3CCCCC3)S(=O)(=O)C2)CC1 (stereo not drawn)	x	5	-28	x	x	5	5	x
CC(C)OC(=O)c1cc(=O)[nH]c2ccccc12	-5	-12	x	-5	i	11	4	0
C=CCNC(=O)/C(=C/c1cn(-c2ccccc2)nc1-c1cccc([N+](=O)[O-])c1)NC(=O)c1ccccc1	6	x	-18	-5	i	-3	-6	13
COc1cccc(-c2nc(N3CCN(Cc4ccccc4)CC3)c3ccccc3n2)c1O	1	1	9	33	x	-3	-3	30
CCCOc1ccc(NC(=O)CC2C(=O)N(CC)C(=S)N2Cc2cccs2)cc1 (stereo not drawn)	-8	-4	51	-5	i	1	-3	-7
Cc1onc(-c2ccccc2Cl)c1C(=O)Nc1cccnc1	13	7	-22	x	i	-1	0	11
Cc1ccc(NC(=O)N2CCC(C(=O)NCCC3=CCCCC3)CC2)cc1	-4	-16	0	5	i	3	-5	-1
O=C(COC(=O)c1ccc(O)cc1O)Nc1ccc(Cl)cn1	12	-9	x	-27	i	2	2	12
COC(=O)CCCC1=CC2=C(c3ccccc3)C(=O)C(C)(OC(=O)C3CCCC3)C(=O)C2=CN1C1CCCCC1 (stereo not drawn)	7	-17	-52	7	i	-2	7	6
CCCCC1=C([O-])C2N=CC=CC2=[N+](c2ccccn2)C1=O (stereo not drawn)	-3	-8	9	10	i	-2	0	5
CCn1c(=O)c2sccc2n(Cc2cccc(C)c2)c1=O	-4	-10	-125	0	i	0	1	6
CCCn1c(N/N=C\C=C\c2ccccc2)nc2c1c(=O)[nH]c(=O)n2C	6	x	15	0	i	5	2	-1
Cc1cc(C)cc(N(CC(=O)NCC2CCCO2)C(=O)CN2C(=O)COc3ccccc32)c1 (stereo not drawn)	-11	-4	-94	-14	i	-4	-2	-6
COc1cc(C(=O)N2CCc3ccccc32)c([N+](=O)[O-])cc1OC	0	3	-17	3	i	-1	2	11
Cc1ccc(S(=O)(=O)NN2C(=O)/C(=C/c3cccn3C)SC2=S)cc1	66	x	x	-4	x	x	x	0	eIF4H FP inh retest=-16;PABP FP inh retest=4
(next part)
SMILES	eIF4H FP inh	Yeast UUG start	HIV Env fusion	CSC inhib	Rce1 inhib	MT1-MMP act inh	MT1-MMP act inh RFP	PABP FP inh	others
CCOC(=O)C1=C(COC(=O)c2ccc(C)s2)NC(=O)NC1C (stereo not drawn)	x	-6	x	-12	i	7	3	x
O=C(c1ccco1)N1CCN(S(=O)(=O)c2ccccc2[N+](=O)[O-])CC1	1	x	-4	-10	i	2	2	-2
O=C(CCl)Nc1cc(S(=O)(=O)N2CCCCCC2)ccc1Cl	-9	x	17	15	i	4	3	-6
COc1ccc(C(=O)Nc2ccc(O)c3c(=O)cc(-c4cccc(Cl)c4)oc23)cc1	-16	-28	31	8	i	1	-3	-15
CC(C)OC(=O)c1c(NC(=O)CCC(=O)O)sc2c1CCCCC2	6	x	13	7	i	2	1	-1
Cc1ccc(NC(=O)CS(=O)CC(=O)NCC2OCCc3ccccc32)c(C)c1 (stereo not drawn)	6	6	-15	13	i	0	1	-7
CCOC(=O)C(Oc1ccc2c(-c3ccccc3)cc(=O)oc2c1C)c1ccccc1 (stereo not drawn)	3	-5	3	x	i	-12	-13	4
CCCn1c(N)c(C(c2ccc(OC)cc2)N2CCN(c3ccccc3)CC2)c(=O)[nH]c1=O (stereo not drawn)	0	x	x	-5	i	-1	2	3
O=C(CC1C(=O)NCCN1C(=O)Nc1ccc(F)cc1)Nc1cc(Cl)ccc1Cl (stereo not drawn)	12	14	-3	-11	i	-4	-3	1
NNc1ncnc2scc(-c3ccc(Cl)cc3)c12	-9	-18	-47	-6	i	-7	-5	0
COC(=O)c1ccc(COC(=O)C2CCN(S(=O)(=O)c3ccc(C)c(C)c3)CC2)o1	x	-10	-17	-6	i	6	7	x
O=C(Oc1ccccc1)c1ccc2nsnc2c1	6	-18	x	-10	i	3	5	10
O=C(Nc1ccc(Cl)cc1Cl)NC1CCN(S(=O)(=O)c2ccc(F)cc2)CC1	-1	-13	9	60	i	0	-4	16
COC(=O)CNC(=O)CNC(=O)c1nn(-c2ccc(OC)c(Cl)c2)c(=O)c2ccccc12	-12	4	5	-11	i	9	9	-13
Cc1ccc(C(=O)NCCN2CCOCC2)cc1S(=O)(=O)N1CCCCC1	-3	-3	21	-17	i	-2	-1	2
COc1ccccc1CCC(=O)N1CCN(C(=O)c2ccccc2)CC1	0	-6	1	0	i	1	1	13
CCN(CC)C(=O)c1sc2nc(-c3cccs3)cc(-c3cccs3)c2c1N	5	x	15	9	i	-16	-4	6
Cc1c(NC(=O)CN2C(=O)c3ccc([N+](=O)[O-])cc3C2=O)c(=O)n(-c2ccccc2)n1C	-9	x	1	-3	i	1	4	-2
O=C(c1ccc2c(=O)n3c(nc2c1)CCCCC3)N1CCN(Cc2ccccc2)CC1	-4	-29	-14	0	i	-1	-1	-7
CCCOc1ccc(Cc2c(Cl)nc(SC)nc2N(C)C)cc1	2	x	8	x	i	-8	-19	-1
COc1ccccc1CN1CC(C(=O)N(C)CCc2nc3ccc(F)cc3[nH]2)CCC1=O (stereo not drawn)	x	-6	7	-7	i	1	2	x
O=C(O)CC1(CC(=O)Nc2ccc(Br)cc2)CCCCC1	3	x	-10	-7	i	2	2	-4
OC(CON=C1c2ccccc2-c2ccccc21)CN1CCNCC1 (stereo not drawn)	2	-9	-20	2	i	-5	0	24
CCN(CC)CCN1C(=O)C(=O)/C(=C(/O)c2cccc(OC)c2)C1c1ccccn1 (stereo not drawn)	2	-9	-168	7	i	3	10	-9
CCOc1cc(C2C(C#N)=C(N)OC3=C2C(=O)CC(C)(C)C3)cc([N+](=O)[O-])c1O (stereo not drawn)	11	x	10	-8	i	2	6	4

Not a retest: an excerpt of the list.
SMILES	eIF4H FP inh	Yeast UUG start	HIV Env fusion	CSC inhib	Rce1 inhib	MT1-MMP act inh	MT1-MMP act inh RFP	PABP FP inh	others
CCOC(=O)C1=C(COC(=O)c2ccc(C)s2)NC(=O)NC1C (stereo not drawn)	x	-6	x	-12	i	7	3	x
O=C(c1ccco1)N1CCN(S(=O)(=O)c2ccccc2[N+](=O)[O-])CC1	1	x	-4	-10	i	2	2	-2
O=C(CCl)Nc1cc(S(=O)(=O)N2CCCCCC2)ccc1Cl	-9	x	17	15	i	4	3	-6

Next part:
SMILES	eIF4H FP inh	Yeast UUG start	HIV Env fusion	CSC inhib	Rce1 inhib	MT1-MMP act inh	MT1-MMP act inh RFP	PABP FP inh	others
Cc1ccc(/C=C/C(=O)c2cc(Br)ccc2OC(=O)c2ccco2)cc1	-13	-21	-109	93*	i	3	-8	11
O=C(COC(=O)c1ccc2c(c1)OCO2)Nc1ccccc1Cl	x	11	0	x	x	2	1	x
N#CC(c1ccc(O)cc1)N1CCOCC1 (stereo not drawn)	1	-10	x	-1	i	-1	3	-6
O=C(Nc1ccc(C(=O)Oc2ccccc2)c(O)c1)c1ccco1	3	2	-78	3	i	4	-2	11
CC(C)(C)C(=O)N1CCN(c2nc3ccc(Cl)cc3s2)CC1	1	-7	15	x	i	-3	-19	11
O=C(CCNC(=O)N1CCn2c1nc1ccccc12)NCc1ccccc1	x	-4	-3	-9	i	-1	0	x
COc1ccc(OC)c(/C=N/NC(=O)CN2CCSCC2)c1	2	-34	x	1	i	1	3	-7
CC1CCC(CN2C(Nc3ccccc3)=NC[C@@H]2C)CC1 (stereo partly drawn)	1	-12	-26	-1	i	-2	1	1
Cc1ccc(-c2csc(NC(=O)/C=C/c3ccco3)c2C(=O)O)cc1	98	42	-19	4	i	-6	8	59	eIF4H FP inh retest=29;PABP FP inh retest=22
O=C(CCc1nc2ccccc2c(=O)[nH]1)NNC(=O)c1ccccc1Cl	x	x	-35	-1	i	-4	4	x
COc1ccc(CC(=O)Nc2ccccc2C(=O)N2CCOCC2)cc1OC	-4	x	x	-13	i	0	-1	-9
Cc1ccccc1NC(=O)CN1C(=O)COc2ccc(Cl)cc21	1	-11	2	9	i	0	7	-10
O=C(CCSCCc1ccccn1)Nc1ccc(Br)cc1F	-8	-29	-1	7	i	4	4	-6
COc1cccc(-c2cc(NC=O)c3ncc(-c4ccc(F)c(Cl)c4)n3c2)c1	x	-14	-7	x	x	-2	1	x
COCc1cc(Sc2cccc(Cl)c2Cl)nc(-c2ccccc2)n1	9	-12	x	21	i	17	-5	1
CCOc1ccc(OCc2ccc(C(=O)N3CCCCC3)o2)cc1	-1	6	3	7	i	1	-5	3
COc1ccc(C(=O)COC(=O)c2sccc2C)cc1OC	x	-5	x	-21	x	-2	-3	x
COc1ccc(C(C)C)cc1S(=O)(=O)Nc1ncn[nH]1	6	-13	-3	-5	x	0	0	3
Cc1ccc(CNc2ccc([N+](=O)[O-])cc2C(N)=O)cc1	x	-12	-243	x	x	9	-3	x
Cc1ccc(Sc2cc(Cl)nc(N)n2)cc1	-19	-15	x	x	i	2	1	-6
C=CCN1C=CC(=C/C=C(/C#N)C(=O)OCC)C=C1	8	16	-154	6	i	-233	0	9
CCC(=O)Nc1cc(OC)cc(OC)c1	-7	5	25	-5	i	0	1	-7
COc1ccc(Cl)cc1C(=O)NNC(=O)c1csc(N2CCOCC2)n1	x	x	x	-5	i	5	6	x
C=CCn1c(SCC(=O)Nc2ccc(OC)cc2)nnc1-c1cnccn1	-5	-14	1	-12	i	1	2	-4
Cc1csc(NC(=O)C2CC(=O)N(c3ccc(C)c(C)c3)C2)n1 (stereo not drawn)	-9	1	7	x	i	2	0	-1
COc1ccc(OCCCNCCc2ccccc2)cc1	-4	x	-10	49	i	1	1	10
O=C(Cn1c(C(F)(F)F)nc2ccccc21)Oc1cccc(C(F)(F)F)c1	2	-8	x	-7	i	0	5	5
CCC(C)c1ccc(NC(=S)NC2CCN(Cc3ccccc3)CC2)cc1 (stereo not drawn)	-1	x	6	36	i	1	-2	-2
COC(=O)c1ccc(C(=O)N2CCCC(Nc3ccc(F)c(F)c3)C2)cc1 (stereo not drawn)	1	-5	x	-15	i	-1	1	4
CN1CCN(CC(O)(c2ccc(Cl)cc2)c2ccc(Cl)cc2)CC1	-9	-3	-4	15	i	-8	-8	-4
